# Screening data (PubChem BioAssay)
# gsp ag: agonists of gsp mutant (McCune-Albright syndrome); gsp mutant cells, cAMP HTRF, 30 min; control for the full effect not named in the record; Potency, µM (top dose mostly 76.9 µM), for the others: top-dose activation (cAMP increase), most hits filed as activators; 0.13% of 340,000 active; active = well fitted activation curve with a large enough effect; inconclusive = small, poorly fitted or top-dose-only effect, or another doubt; inactive = no such curve, though single readings can be large or run the other way; cell line not stated here;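 note: phosphodiesterase inhibitor Ro 20-1724 added with compounds to block cAMP breakdown; potency is the fitted concentration of half-maximal effect; nearly all actives have a fitted effect of over 60% in size; about a fifth of the inactives were tested at one dose only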
#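 Cells stably selected in G418 were plated at 2000/well, grown 16-24 hr, then given compounds in DMSO with the PDE inhibitor […] (300 uM solution added) for 30 min at 37C; cAMP was read by HTRF.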
# Six1-Eya2 inh: blocks human Six1 binding to Eya2; Q15475+O00167; AlphaScreen GST-Six1/His-Eya2 binding, biochemical; hits give low values; control for the full effect not named in the record; activity change, % (concentration not given with the values); 0.56% of 360,000 active; in the data active = activity change below about -65%; inconclusive = about -30% to -65%; inactive = above about -30%; note: % is set by controls: 0 for no effect and ±100 for the full control effect
#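 AlphaScreen luminescence read after one hour at 37 °C in darkness. Pin-transferred compounds met GST-Six1 and His-Eya2 protein (5X stock 250 nM/500 nM) plus glutathione donor and Ni-chelate acceptor beads (5X, 50 ug/mL).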
# D2 ag: activates the human D2 dopamine receptor | P14416 | DiscoveRx PathHunter D2 beta-arrestin, luminescence, 90 min; 100% = 57 uM dopamine signal | activation, % (no concentration beside the values) | 0.084% of 360,000 active | AID 624465; in the data active = activation above about 40%; inconclusive = about 15% to 40%; inactive = below about 15%; note: compound concentration not given in the record; the text of the record calls up to 30% inactive
# Target sequence (P14416 whole entry, looked up): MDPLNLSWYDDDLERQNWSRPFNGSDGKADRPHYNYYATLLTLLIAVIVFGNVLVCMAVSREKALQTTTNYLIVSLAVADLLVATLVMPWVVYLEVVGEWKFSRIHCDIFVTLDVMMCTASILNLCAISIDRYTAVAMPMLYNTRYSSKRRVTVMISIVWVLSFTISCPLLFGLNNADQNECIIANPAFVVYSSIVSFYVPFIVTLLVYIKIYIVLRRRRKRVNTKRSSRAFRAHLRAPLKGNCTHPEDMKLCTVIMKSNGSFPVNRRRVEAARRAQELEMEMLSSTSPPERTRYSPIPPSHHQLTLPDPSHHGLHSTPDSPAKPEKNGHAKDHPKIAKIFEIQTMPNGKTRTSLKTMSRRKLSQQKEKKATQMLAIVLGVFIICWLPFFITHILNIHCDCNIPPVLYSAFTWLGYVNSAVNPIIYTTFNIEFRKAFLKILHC
#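 DiscoveRx PathHunter D2 beta-arrestin cells (2,100/well) attached overnight, then compound-stimulated 90 min at 37 C in HBSS/10 mM HEPES/0.1% Tween-20 buffer; beta-galactosidase complementation read by luminescence after 1 h at ambient temperature. Dopamine 57 uM final (EC100) as control.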
# D2 potentiator: potentiates the human D2 dopamine receptor allosterically; P14416; DiscoveRx D2 beta-arrestin cells, luminescence, 90 min; 100% = 57 uM dopamine signal; potentiation, % (test concentration not listed); 0.23% of 360,000 active; AID 624464; active = potentiation of 50% or more; inconclusive = 30% to 50%; inactive = 30% or less;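 note: compound concentration not given in the record; tested on top of an EC20 dose of dopamine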
#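 PathHunter D2 cells, attached overnight at 37 deg C, received compound in DMSO plus dopamine at EC20 (50 nM final) for 90 min at 37 deg C. Beta-arrestin recruitment was read as luminescence after 1 h with detection reagent at ambient temperature.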
# CtBP-E1A inh: CtBP/E1A binding inhibition; activity change, % (no concentration beside the values); 0.49% of 340,000 active; AID 651724; AlphaScreen GST-E1A/His-CtBP binding, 1536-well; hits give low values; control for the full effect not named in the record; in the data active means activity change below about -65%; inconclusive means about -30% to -65%; inactive means above about -30%; note: % is set by controls: 0 for no effect and ±100 for the full control effect; compound concentration not given in the record
#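 Protein mix (5X: 125 nM each GST-E1A, His-CtBP) was incubated with pinned compound 2 h at 37 deg C in dark, in 50 mM Tris pH 8.0 buffer with 300 mM NaCl. Glutathione donor and nickel acceptor beads followed; AlphaScreen signal read after 1 h.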
# gsp antagonist: antagonizes gsp, the McCune-Albright syndrome mutation; Potency, µM (titrated, usually from 76.9 µM), for inactives: at the top dose activity change, negative = inhibition, hits mostly inhibitors; 0.4% of 340,000 active; gsp-mutant cells, cAMP HTRF, 30 min; control for the full effect not named in the record; AID 624288; active = falling curve of any shape with a large fitted effect; inconclusive = falling curve, mostly with a smaller effect; inactive = flat or rising curve; cell line not stated here;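 note: intracellular cAMP measured with PDE inhibitor Ro 20-1724 present during compound exposure; potency is the fitted concentration of half-maximal effect; % is set by controls: 0 for no effect and ±100 for the full control effect; nearly all actives have a fitted effect of over 65% in size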
#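 Cells, 2000/well, grown 16–24 h in DMEM 10% FBS with 0.5 mg/ml G418, then compounds plus […] (300 uM addition stock), 30 min at 37C. cAMP read by HTRF (cAMP-d2 and anti-cAMP antibody-K in lysis buffer) after 30 min RT.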
# The depositor's hits bear a star; ? = inconclusive; · = not tested or not shown; [ ] = dose if it differs, or a comment.
# Each structure is followed by: gsp ag | Six1-Eya2 inh | D2 ag | D2 potentiator | CtBP-E1A inh | gsp antagonist
> CC(C)CC1NC(=O)N(CC(=O)NC2CCCc3ccccc32)C1=O (stereo not drawn)
 : -8%[15.4 µM] | 1 | -2.7 | -5 | 10 | 0%
> CC(=O)c1ccc(OCc2cn(CC(=O)c3ccc(O)cc3)nn2)cc1
 : · | -2 | -10 | -14 | 1 | -3%
> CCCCC(=O)NNC(=S)NC(=O)C(c1ccccc1)c1ccccc1
 : 14%[15.4 µM] | 0 | -11 | -26 | -11 | 4%
> NNC(=O)CNC(c1ccccc1)c1cc(Br)ccc1N (stereo not drawn)
 : 3%[15.4 µM] | 1 | -5.1 | -10 | 3 | 1%
> CCOc1ccc(S(=O)(=O)NC(=O)c2ccccc2)cc1
 : ? | -20 | -8.2 | -10 | -8 | 2%
> COc1ccc(NC(=O)c2cccc(N3C(=O)C4C5C=CC(C5)C4C3=O)c2)c(OC)c1 (stereo not drawn)
 : -2% | -2 | -1.7 | -17 | -21 | -1%
> CCCS(=O)(=O)C(=C1NCCO1)S(=O)(=O)CCC
 : 4% | 12 | -1.0 | -5 | -1 | 3%
> c1ccc2c(c1)COC(CNC1CCCCC1)OC2
 : 8% | 13 | -2.1 | -17 | · | 10%
> CCOc1ccc(NC(=O)COC(=O)Cn2cnc3ccccc32)cc1
 : -6% | 3 | -3.8 | -15 | -2 | -10%
> Cc1nc(CS(=O)(=O)c2ccccn2)sc1C(=O)NNC(=O)c1ccc(Cl)cc1
 : 2%[15.4 µM] | -17 | -5.3 | -4 | -1 | -12%
> Cn1c(C(=O)N2CCN(Cc3ccccc3)CC2)cc2c(=O)n(C)c3ccccc3c21
 : -3% | -17 | -7.3 | -6 | -20 | -6%
> O=C(Cc1cccc2ccccc12)NC(=S)Nc1cccc(C(=O)O)c1
 : 17%[15.4 µM] | -6 | -0.2 | -1 | -3 | -7%
> Cc1ccc(C2=CC(c3ccc(C)cc3)n3ncnc3N2)cc1 (stereo not drawn)
 : ? | 0 | 12 | 3 | 4 | -17%
> C=CCNC(=O)Nc1ccc(F)c(Cl)c1
 : -28% | 5 | -1.4 | -5 | · | 22%
> O=C(O)c1c2c(nc3ccc(S(=O)(=O)N4CCC(C(=O)NCc5ccccc5Cl)CC4)cc13)CCCC2
 : 22% | ? | -2.2 | -4 | ? | 9%
> COc1ccc(NC(=O)CCN2CC(C)OC(C)C2)c(OC)c1 (stereo not drawn)
 : 9% | 5 | -0.4 | -13 | 8 | 8%
> COc1cc(C(=O)N2CCC(N3CCCCCC3)CC2)cc(OC)c1OC
 : 13% | 2 | -2.2 | -20 | -2 | 5%
> C=CCOc1ccc(CNc2ccc(NC(=O)CC(C)C)cc2)cc1OC
 : 3% | -14 | 0.2 | ? | 5 | 12%
> CCOC(=O)c1cc2n(c1N)-c1ccccc1C2=O
 : ? | -4 | -2.1 | -22 | -9 | -3%
> COc1cccc(CNC(=O)Cn2c(=O)n(CCC(=O)N3CCCCC3)c(=O)c3sccc32)c1
 : -2% | 3 | -1.6 | -2 | 8 | 11%
> S=C(NCCc1ccccc1)NC1CCC(NC(=S)NCCc2ccccc2)CC1 (stereo not drawn)
 : -20% | 3 | 0.7 | -1 | 1 | 4%
> O=S1(=O)CCC(N2CCOCC2)C1 (stereo not drawn)
 : -21% | 3 | -3.6 | 19 | -14 | 4%
> COc1ccc(C(O)c2nc(-c3cnc4ccccc4c3)cs2)cc1 (stereo not drawn)
 : · | -11 | -2.7 | -2 | -6 | ·
> COc1ccc2c(c1)c(C(C)=O)c(C)n2CCc1ccccc1
 : ? | -2 | 4.9 | -9 | -3 | ?
> Cc1ccc(C)c(NC(=O)Cn2nnc(C(=O)Nc3c(C)cccc3C)c2N)c1
 : -31%[inhibitor] | 2 | 0.0 | -30 | 1 | 11%
> CC(=O)N1CCc2cc(N=NC3=C(O)CC(C)(C)CC3=O)ccc21
 : 4% | -11 | -4.6 | -28 | · | -22%
> O=C(CCCOc1ccccc1)N1CCN(c2ccccn2)CC1
 : -22% | 2 | -1.9 | 2 | 14 | 9%
> COc1ccc(C2=NS(=O)(=O)N(C)C(C(=O)N3CCC(C)CC3)=C2)cc1
 : ? | -4 | -4.9 | -4 | -5 | -8%
> CC1CN(C=O)CC(C)N1CCN1C(C)CN(C=O)CC1C (stereo not drawn)
 : -4% | 11 | -0.6 | 7 | 0 | -12%
> CC(=O)OCCNc1nc(-c2ccccc2)nc2ccccc12
 : ? | 0 | -5.6 | 0 | 4 | -10%
> O=C(c1cccc(C(F)(F)F)c1)c1c[nH]c(C(=O)NCC2CCCO2)c1 (stereo not drawn)
 : 1%[15.4 µM] | -1 | -1.3 | 10 | -4 | 10%
> Nc1ccn(-c2ccc(Cl)cc2)c(=O)c1
 : -29% | 5 | -2.2 | -2 | -2 | -6%
> COCc1c(C(=O)N/N=C/c2ccncc2)nnn1-c1nonc1N
 : -39%[inhibitor] | -4 | 9.0 | -11 | -22 | -3%
> Cn1ncc([N+](=O)[O-])c1C(=O)n1nnc2ccccc21
 : 1% | 5 | -5.6 | -2 | -2 | 7%
> C/C(=N\NC(=O)CCc1ccc(S(=O)(=O)N2CCOCC2)cc1)c1ccc(OC(F)F)cc1
 : -30% | 3 | -1.9 | -9 | -2 | -4%
> CCOc1cc(-c2nc(C)c(C(C)=O)n2O)ccc1OCC(=O)Nc1cccc(C)c1
 : 10%[15.4 µM] | -6 | -5.3 | -42 | -5 | ?
> O=C1c2ccccc2[C@@H]2CC(O)C(O)CCN12 (stereo partly drawn)
 : · | 2 | 0.2 | -5 | 2 | 10%
> O=C(Nc1ccc(C(F)(F)F)cn1)Nc1cccs1
 : 29%[15.4 µM] | -15 | -3.4 | -5 | 19 | -1%
> Cc1ccc(S(=O)(=O)N2CCC(C(=O)C3C(=O)CC(C)(C)CC3=O)CC2)cc1
 : 1% | 6 | 2.3 | 3 | -4 | -13%
> C=CC[C@@H](CC(=O)N[C@@H](CO)Cc1ccccc1)C(=O)N[C@H](COC(=O)[C@H](CC=C)CC(=O)OC(C)(C)C)Cc1c[nH]c2ccccc12
 : ? | -7 | -1.1 | -8 | · | -20%
> Nc1nc(-c2ccc(NC(=O)c3ccco3)cc2)cs1
 : ? | -15 | 5.4 | 15 | -13 | -16%
> CCC1NC(=O)c2cc3ccccc3cc2-n2c1nc1cc(F)ccc1c2=O (stereo not drawn)
 : ? | 2 | -1.1 | · | 4 | ·
> COc1ccc(CNC(=O)c2ccc3c(c2)N(C)CCS3)cc1
 : ? | -12 | -4.7 | -14 | -13 | -14%
> O=C1CSC(c2ccccc2F)N1c1cc(Cl)ccc1O (stereo not drawn)
 : 0% | -3 | -2.4 | 5 | 1 | 7%
> COc1ccc(-c2csc(C(O)c3ccc(F)cc3)n2)cc1 (stereo not drawn)
 : · | 6 | 5.1 | -5 | 8 | ·
> O=C1CCCc2oc3ccc(NS(=O)(=O)c4cccc5cccnc45)cc3c21
 : 4%[15.4 µM] | -3 | 0.1 | -3 | 0 | ?
> CC1CCCCN1C(=O)CSc1nc2ccccc2[nH]1 (stereo not drawn)
 : 20%[15.4 µM] | 6 | 1.0 | -7 | 2 | 13%
> C[C@]1(CO)CCC[C@@]2(C)C1CC[C@@H](CO)[C@@H]2CCc1ccoc1 (stereo partly drawn)
 : 18% | -3 | 6.6 | 3 | 1 | -8%
> Cc1cccnc1C1=NOC(Cc2ccccc2)C(=O)N1Cc1ccc2c(c1)OCO2 (stereo not drawn)
 : · | 0 | 5.3 | 1 | 4 | ·
> Cc1cccc(CCNC(=O)CCNS(=O)(=O)c2cc(Br)cnc2N)c1
 : -92%[inhibitor] | 2 | 4.0 | -8 | 3 | -6%
> CCOc1cc(/C=N/NC(=O)c2ccc3c(c2)OCCO3)cc(Br)c1O
 : 0%[15.4 µM] | ? | -0.4 | -9 | 0 | -4%
> Cc1ccn(CC(=O)NC2CCCN(Cc3ccc(CC(C)C)cc3)C2)n1 (stereo not drawn)
 : ? | -2 | -2.4 | -20 | -16 | 3%
> Cc1ccc(S(=O)(=O)N(C)C)cc1NC(=O)c1cc(-c2ccncc2)nc2ccccc12
 : ? | -28 | 0.1 | 3 | -26 | -6%
> O=C(NCc1cccnc1)c1ccc(NC(=O)c2ccc(Br)cc2)cc1
 : -5%[15.4 µM] | 0 | -2.1 | -10 | -3 | 6%
> Cn1c(SCC2CCCO2)nnc1-c1cccc([N+](=O)[O-])c1 (stereo not drawn)
 : 10% | -2 | 0.7 | 0 | 8 | 10%
> COC(=O)COc1cc(Br)c(/C=C2/SC(=O)N(CC(=O)N3CCCC3)C2=O)cc1OC
 : -3% | 0 | -2.2 | -10 | 6 | -27%
> CCOC(=O)C1CCN(C(=O)c2ccc(N(C)S(=O)(=O)c3ccc(OC)cc3)cc2)CC1
 : 7%[15.4 µM] | 2 | -9.0 | -4 | 0 | 0%
> NC(=O)C1(N2CCCCC2)CCN(CC(=O)Nc2cc(Cl)ccc2Cl)CC1
 : 1% | 3 | -1.4 | -11 | 2 | 11%
> C#CCOCCOCCOCCNc1nc(N2CCN(C(=O)[C@H]([C@@H](C)CC)n3cc([C@@H](N)CC(C)C)nn3)CC2)nc(N2CCN(C(=O)[C@H](CCCCN)n3cc([C@@H](N)CO)nn3)CC2)n1
 : · | -6 | -1.4 | -8 | -14 | 7%
> Cc1ccc(S(=O)(=O)NCCC(=O)Nc2cccc(Cl)c2)cc1
 : -55% | 4 | 1.6 | -19 | 3 | 8%
> CN(C)S(=O)(=O)c1ccc2c(c1)nc(CCC(=O)NCC(=O)Nc1ccc(F)c(F)c1F)n2C
 : 1% | -7 | 0.5 | -13 | -6 | ·
> O=C(CN1CCN(S(=O)(=O)c2cc(Br)ccc2Br)CC1)NCc1ccccc1Cl
 : -1% | -4 | -3.1 | -2 | -5 | 2%

# Molecules shown so far containing a thiophene ring, fused or not (2):
# Each structure is followed by: gsp ag | Six1-Eya2 inh | D2 ag | D2 potentiator | CtBP-E1A inh | gsp antagonist
> COc1cccc(CNC(=O)Cn2c(=O)n(CCC(=O)N3CCCCC3)c(=O)c3sccc32)c1
 : -2% | 3 | -1.6 | -2 | 8 | 11%
> O=C(Nc1ccc(C(F)(F)F)cn1)Nc1cccs1
 : 29%[15.4 µM] | -15 | -3.4 | -5 | 19 | -1%

# Three of these compounds in another layout.
molecule | gsp ag | Six1-Eya2 inh | D2 ag | D2 potentiator | CtBP-E1A inh | gsp antagonist
Nc1ccn(-c2ccc(Cl)cc2)c(=O)c1 | -29% | 5 | -2.2 | -2 | -2 | -6%
COCc1c(C(=O)N/N=C/c2ccncc2)nnn1-c1nonc1N | -39%[inhibitor] | -4 | 9.0 | -11 | -22 | -3%
Cn1ncc([N+](=O)[O-])c1C(=O)n1nnc2ccccc21 | 1% | 5 | -5.6 | -2 | -2 | 7%
